Source: PubChem (several laboratories)
HIV Env fusion: HIV envelope-mediated fusion inhibition; HeLa-JRFL Env/CEM21 cell fusion, luciferase; inhibition, % at 12.3 µM; actives 1.1% (n = 360,000); AID 651610;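 active = mean replicate inhibition score of at least 50 and every replicate individually at or above 50; inconclusive = only one of the two criteria met; inactive = mean below 50 and not all replicates reaching 50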;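 note: 0% = plate neutral controls and 100% = maraviroc near 300 nM; one replicate is shown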
UUG fidelity: yeast start codon fidelity modulation; actives 0.13% (n = 350,000); activity score, % at 18.7 µM; S. cerevisiae UUG-firefly luciferase reporter, luminescence/redox ratio;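 active = replicate mean at a twofold rise or more, about +100% in these data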;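 note: firefly luciferase made from a UUG start codon reports start codon fidelity; reporter light over untreated wells divided by growth signal over untreated wells; some hits fall short of that in this replicate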
Rce1 inh: yeast Ras-converting enzyme inhibition; Q03530; yeast membranes, quenched prenylated peptide cleavage fluorescence; calls only; actives 0.27% (n = 290,000); AID 2563;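 active = fall in fluorescence gain of 50% or more versus controls, with final raw signal at or below 3038400; inconclusive = same 50% fall but final raw signal above 3038400; inactive = fall in fluorescence gain under 50%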;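 note: plate controls were neutral control wells for no effect and wells lacking membranes for full effect; tested at 10 µM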
MT1-MMP act inh: blocks activation of human MT1-MMP | actives 0.061% (n = 360,000) | GFP/RFP ratio change, % at 20 µM | HT1080 RFP-PRO-GFP cells, GFP/RFP ratio fluorescence, overnight; percent of plate control window, DMSO zero | P50281;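 active = GFP/RFP ratio change of at least 30% with cell ATP level not reduced by more than half and red fluorescence within 50% of control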; note: strong numbers were not always called active
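Assay system: HT1080 RFP-PRO-GFP cells. Benchmarks: DMSO vehicle wells and RFP-L50D-GFP reporter cell wells. Times: overnight cell settling, then overnight compound exposure, 37 °C, 5% CO2. Compound: 20 µM single dose, 1% DMSO. Read-out basis: GFP/RFP fluorescence ratio.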
eIF4H inh: inhibitors of RNA binding by human eIF4H; actives 0.94% (n = 290,000); Q15056; inhibition, % at 35 µM; eIF4H fluorescence polarization binding assay;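 active = 50% or more with normal probe brightness, or confirmed in later tests; inconclusive = above 50% with abnormal brightness, or retests that disagree; inactive = below 50% or failed in later tests; about a fifth of its hits are not listed in these tables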;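 note: calls also rest on retests at 20 µM and on dose response follow-up; 0% = protein and probe with vehicle and 100% = probe without protein; strong numbers were not always called active; many hits fall short of the cut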
CSC inhib: cancer stem cell inhibition; cancer stem cell-like cells viability, luminescence; inhibition, % at 7.5 µM; actives 1.1% (n = 300,000); AID 2717;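 active = mean at 75% or more and at least half the replicates too; inconclusive = mean and replicates disagree; tested in HMLE shEcad cells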;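 note: 0% = median of negative and 100% = median of positive control wells; the first replicate is given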
PABP FP inh: PABP-poly(A) binding inhibition | P11940 | actives 1% (n = 290,000) | inhibition, % at 35 µM | PABP-poly(A) RNA binding, fluorescence polarization;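 active = 50% or more with normal probe brightness, or confirmed in later tests; inconclusive = above 50% with abnormal brightness, or retests that disagree; inactive = below 50% or failed in later tests; about a fifth of its hits are not listed in these tables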;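 note: calls also rest on retests at 20 µM and on dose response follow-up; controls were probe without protein and protein plus probe with vehicle; some compounds called inactive have numbers as strong as hits; many hits fall short of the cut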
Target sequence (P11940 whole entry, looked up): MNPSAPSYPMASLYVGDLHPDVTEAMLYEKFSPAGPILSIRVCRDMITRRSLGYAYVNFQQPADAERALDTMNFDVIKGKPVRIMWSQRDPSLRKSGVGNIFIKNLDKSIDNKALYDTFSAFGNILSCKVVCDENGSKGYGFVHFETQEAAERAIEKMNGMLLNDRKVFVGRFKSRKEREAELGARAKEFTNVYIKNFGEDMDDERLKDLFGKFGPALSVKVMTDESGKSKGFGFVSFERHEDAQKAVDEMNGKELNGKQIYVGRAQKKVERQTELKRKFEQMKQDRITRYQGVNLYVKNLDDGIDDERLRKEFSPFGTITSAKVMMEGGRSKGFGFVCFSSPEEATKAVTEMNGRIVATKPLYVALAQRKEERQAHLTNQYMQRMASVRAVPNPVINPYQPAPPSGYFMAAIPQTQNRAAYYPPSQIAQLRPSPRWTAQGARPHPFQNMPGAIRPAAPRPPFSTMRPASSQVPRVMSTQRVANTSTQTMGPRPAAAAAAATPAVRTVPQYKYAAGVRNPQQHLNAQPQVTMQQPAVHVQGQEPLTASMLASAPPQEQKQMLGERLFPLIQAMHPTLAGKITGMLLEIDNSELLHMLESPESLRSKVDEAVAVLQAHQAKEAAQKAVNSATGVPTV
eIF4H inh retest: further read-out of eIF4H inh, marked with its call; inhibition, %; compound at 20 µM; confirmation average;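 mean of two retest wells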
PABP FP inh retest: also measured in PABP FP inh; calls as there; inhibition, %; compound at 20 µM; confirmation repeats;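 mean of two retest wells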
MT1-MMP act inh RFP: further read-out of MT1-MMP act inh, marked with its call; RFP signal change, %; measured here: RFP expression control read;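 0 = vehicle wells; hits needed this value within 50% of zero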
Numbers without * were called inactive; i = inactive; ? = inconclusive; . = no result given; & = joins results of further samples; [ ] = remark or other dose.

SMILES	HIV Env fusion	UUG fidelity	Rce1 inh	MT1-MMP act inh	MT1-MMP act inh RFP	eIF4H inh	CSC inhib	PABP FP inh	others
COc1ccc(-n2nc(C(=O)NCC(=O)N3CCN(c4ccccn4)CC3)c3ccccc3c2=O)cc1OC	29	.	i	-4	-4	-7	.	-9
CCC(C)NCc1ccc(C(=O)OC)o1 (stereo unspecified)	-41	-14	i	4	8	4	-19	-7
Cc1ccc(CNC(=O)C(Cc2ccccc2)NS(=O)(=O)c2ccc(Br)s2)cc1 (stereo unspecified)	-3	.	i	-4	-8	-14	9	0
CCc1ccc(CNC(=O)C2CCC(=O)N(CCc3ccc(Cl)cc3)C2)nc1 (stereo unspecified)	0	1	i	1	-1	-9	12	9
Cc1sc2ncnc(SCC(=O)N3c4ccccc4Sc4ccc(Cl)cc43)c2c1C	-3	.	i	-10	-7	-9	13	-2
O=C(Cn1cc(SCc2cccc(Cl)c2)c2ccccc21)N1CCOCC1	-19	-5	i	-6	-3	-11	.	3
O=C(CCC(=O)N(CC(=O)NC1CCCC1)c1ccc(F)cc1)Nc1nccs1	-6	-4	i	-4	-1	-4	.	-3
COc1ccc(CN2CCNC(=O)C2CC(=O)N(C)Cc2ccncn2)c(OC)c1 (stereo unspecified)	11	-9	i	3	5	14	-12	-9
Cc1cc(/C=C(\C#N)C(=O)N2CCOCC2)c(C)n1C1CCCC1	-25	.	i	7	-3	-18	0	8
O=C(C1CC1c1ccccc1)N1CCOCC1 (stereo unspecified)	-29	-5	i	2	3	3	-18	-3
O=C(C[n+]1ccc(C(=O)NCCCO)cc1)c1cccc(Br)c1	9	.	.	0	0	-5	-5	-1
CC(=O)c1c(C)oc2ccc(OCc3ccccc3)cc12	8	-11	i	-7	-7	-4	3	-7
COc1ccccc1CNC(=O)c1ccc(NS(=O)(=O)c2c(C)noc2C)cc1	.	-15	i	1	-3	-3	1	5
CCOc1ccc(CC(=O)OCN2C(=O)c3ccccc3C2=O)cc1	-90	-9	i	4	2	6	-1	-4
COc1cc2[nH]c(=O)n(CCCCCC(=O)NCCCN3CCCC3=O)c(=O)c2cc1OC	3	-28	i	-6	-4	8	3	-4
COc1cccc(-c2noc(C(C)n3nc(C)c([N+](=O)[O-])c3C)n2)c1 (stereo unspecified)	.	-5	i	2	-1	7	4	3
NC(=O)CC(NC(=O)Cc1ccc(Cl)cc1)c1ccc(NCCN2CCOCC2)c([N+](=O)[O-])c1 (stereo unspecified)	-21	-7	i	3	4	1	5	14
Cc1ccc(OC(=O)c2cccc(C(=O)Oc3ccc(C)cc3)n2)cc1	-5	.	i	-3	-4	-3	-8	-2
CC(Sc1nc(-c2ccccc2)nc2c1COC(C)(C)C2)C(=O)N1CCOCC1 (stereo unspecified)	-24	17	i	-6	1	-1	-17	0
CCOC(=O)CSc1nc2ccccc2n2cnnc12	-16	-12	i	-4	1	6	-6	10
O=C(COc1ccccc1)N1CCN(S(=O)(=O)c2cccs2)CC1	-194	-8	i	5	0	3	6	-8
O=C(Cn1c(=O)c2cccn2c2ccccc21)NCCCN1CCCCC1	2	-10	i	4	5	-9	6	0
CN(C)S(=O)(=O)c1cccc(COC(=O)CN2C(=O)NC3(CCCC3)C2=O)c1	.	-8	i	2	7	7	-13	12
O=C(CN1CCCCC1)Nc1ccc(NC(=O)c2ccccc2Cl)cc1Cl	6	-10	i	-1	-4	7	40	12
O=C(Cn1nc(-c2ccc(Cl)cc2)ccc1=O)NCC1CCCO1 (stereo unspecified)	21	-11	i	1	5	-4	1	3
Cc1cccc(N(CC(=O)NC2CCCCC2)C(=O)c2ccc(C)s2)c1	-14	0	i	1	5	-8	-3	16
CN1CCN(/C=C(\C#N)S(=O)(=O)c2ccc(Cl)cc2)CC1	-12	.	i	-1	2	15	-22	2
Cn1c(-c2cccc(Br)c2)n[nH]c1=O	10	.	i	4	4	-1	.	0
Cc1ccc(-n2c(SCC(=O)N3CCCC3)nc3c(c2=O)SCC3)cc1	.	.	i	.	.	-8	3	0
Oc1ccc2ccccc2c1C=Nc1ccccc1	9	-16	i	2	3	-6	3	7
O=C(O)c1cc(NC(=O)c2ccc(Cl)c([N+](=O)[O-])c2)cc(C(=O)O)c1	-1	.	i	2	-1	3	-2	-8
CN(CC(=O)NC1CCCc2ccccc21)S(=O)(=O)c1cccs1 (stereo unspecified)	-39	-8	i	-9	-5	-4	-13	-19
O=C(Nc1ccc2c(c1)OCO2)C1CCN(Cc2cnn(-c3ccccc3)c2-n2cccc2)CC1	.	.	.	2	-8	-10	-5	-6
Cc1ccc(S(=O)(=O)N2[C@@H](c3cccc(Cl)c3)C(C(=O)O)=CC[C@H]2c2ccc3c(c2)OCO3)cc1	-18	-2	.	0	3	.	-3	.
CCN(Cc1ccccc1)S(=O)(=O)c1ccc(C(=O)Nc2nnc(C3CC3)o2)cc1	25	-18	i	-6	-9	7	34	45
O=S(=O)(c1cccc(-c2cn3cccnc3n2)c1)N1CCOCC1	-20	-9	.	6	0	-2	-9	2
COc1ccc(OC)c(C2C(C(=O)c3ccco3)=C(O)C(=O)N2Cc2cccnc2)c1 (stereo unspecified)	4	-14	i	-2	3	6	-2	15
Cc1ccc(C)c(NC(=S)N(Cc2cccc(Br)c2)CC2CCC(C(=O)O)CC2)c1 (stereo unspecified)	-5	-20	i	-5	0	-12	3	-1
O=[N+]([O-])c1ccc(NCCCN2CCOCC2)c(Cl)c1	-5	-6	i	-4	1	-1	-3	2
Cc1ccc2nc(-c3ccccc3)c(CC(=O)O)c(C(=O)O)c2c1	4	.	i	-1	5	-3	-4	2
Cc1ccc(CNC(=O)CC(C)S(=O)(=O)c2ccc3c(c2)NC(=O)CS3)o1 (stereo unspecified)	13	-8	i	-13	-1	?	-4	?
Cc1cc(C(=O)NCCCN2CCCC2=O)cs1	-46	-37	i	4	3	1	-8	7
CN(C(=O)COC(=O)c1ccc(C#N)cc1)c1ccccc1	5	-7	i	-1	4	-16	-9	10
C[C@H](CO)N1C[C@H](C)[C@@H](CN(C)S(C)(=O)=O)Oc2ccc(N(C)C)cc2C1=O	-8[16.7 µM]	-19&-16	.	2	1	.	-12	.
COc1cc(C(=O)NCCCCCCNC(=O)c2cc(OC)c(OC)c(OC)c2)cc(OC)c1OC	6	3	i	6	7	-4	-13	1
CCSc1cnc(-c2ccccc2)n1CC	-3	.	i	-4	1	-1	0	7
Cc1ccc(CNS(=O)(=O)c2ccc3c(c2)n(C)c(=O)n3C)cc1	-11	-18	i	2	-16	-1	-6	-5
CNC(=O)c1c(NC(=O)c2cccc(C)c2)sc2c1CCC2	-17	-8	i	-14	5	4	9	-5
Cn1cc(C(=O)NCCO)c(=O)c2ccccc21	22	-19	i	4	3	0	6	12
CC(C)CCNC(=O)C1CC(c2cccc([N+](=O)[O-])c2)=NO1 (stereo unspecified)	8	-14	i	0	3	-4	-2	-2
CCOC(=O)C1=C(N)Oc2cc(O)ccc2C1c1ccccc1 (stereo unspecified)	0	-13	i	0	-4	-1	51	4
COc1ccc(C2CC(c3ccc(OC)cc3O)=NN2C(=O)c2ccccc2)cc1 (stereo unspecified)	9	-14	i	0	-2	-2	16	15
CCOC(=O)c1nn(-c2ccc(F)cc2)c2nc(Nc3ccccc3)cc(=O)n12	.	.	i	-2	6	0	-8	38
Cc1ccc(NC(=O)NC(=O)COc2ccccc2C(N)=O)c(C)c1	-19	4	.	1	3	.	-11	.
CCN(CC(=O)NC1CCS(=O)(=O)C1)c1ccc(S(C)(=O)=O)cc1[N+](=O)[O-] (stereo unspecified)	.	-13	i	4	7	11	-7	9
O=C(CCCSc1nc2ccccc2[nH]1)N1CCN(c2ccc([N+](=O)[O-])cc2)CC1	.	-7	i	-7	-29	-10	-8	0
Cc1ccc(NC(=O)CNC(=O)c2ccco2)cc1	0	-20	i	2	2	-4	-5	-4
CCOC(=O)N1CCN(c2c(NCc3ccccc3Cl)c(=O)c2=O)CC1	2	1	i	1	1	-9	9	-3
O=C(COc1ccc([N+](=O)[O-])cc1)Nc1cccc2nsnc12	4	-3	i	-4	3	?	19	?
Cc1ccc(S(=O)(=O)N(C(=N)N)c2nc(N(C)C)nc(N(C)C)n2)cc1	1	.	i	-3	-1	0	-18	6
Other structures:
SMILES	HIV Env fusion	UUG fidelity	Rce1 inh	MT1-MMP act inh	MT1-MMP act inh RFP	eIF4H inh	CSC inhib	PABP FP inh	others
COc1ccc(-c2[nH]ncc2CNC(C)c2cn(C)nc2C)c(F)c1 (stereo unspecified)	6	.	i	-15	0	8	-4	2
O=C(Cc1ccccc1)N1CCCC(c2nc(-c3ccc(S(=O)(=O)N4CCCC4)cc3)no2)C1 (stereo unspecified)	.	2	i	-5	-11	2	-6	1
Cc1c(Br)c(O)c(Br)c(O)c1/C=N/n1c(-c2ccccc2)n[nH]c1=S	.	-22	i	0	0	9	37	53	eIF4H inh retest=10;PABP FP inh retest=39
O=C(NCc1ccc(F)cc1)c1ccc(NC(=O)C2CCCO2)cc1 (stereo unspecified)	-11	-16	.	2	1	-14	-11	-3
CCOC(=O)CC(NC(=O)CCc1c(C)nc2nc(C)nn2c1C)c1ccc(OC(C)C)cc1 (stereo unspecified)	11	-17	i	-5	0	-1	0	-11
CC1=CCC2C(=O)N(C(C)c3ccccc3)C(=O)C2C1 (stereo unspecified)	11	-17	i	0	6	-9	-2	3
CCOc1ccc(NC(=O)c2ccccc2NS(C)(=O)=O)cc1	-20	-16	i	-3	-3	1	-8	13
COC(CN(C)C(=O)c1ccc2c(c1)NC(=O)c1ccccc1S2)OC	5	8	i	1	-2	-2	-5	-5
CN1/C(=C\C(=O)COC(=O)CN2C(=O)C3CC=CCC3C2=O)C(C)(C)c2ccccc21 (stereo unspecified)	-74	-1	i	6	1	-4	3	0
O=C(Cc1cccs1)N/N=C/C=C/c1ccccc1[N+](=O)[O-]	-9	-1	i	12	-5	5	5	-16
CCc1ccc(NC(=O)CNS(=O)(=O)c2c(C)noc2C)cc1	.	-3	i	-1	0	-4	1	2
C[C@H]1COC(=O)[C@@H](NC(=O)OCC2c3ccccc3-c3ccccc32)C/C=C\C[C@H](CC(=O)NCCO)C(=O)N1	6	-18	.	1	3	.	.	.
O=C(CN1C2CCCC1CC(NC(=O)c1ccccc1)C2)Nc1ccccc1C(F)(F)F (stereo unspecified)	8	-42	i	3	-15	-1	8	4
Cn1nnnc1SCCNCc1ccccc1OCc1ccccc1	25	.	i	3	1	1	6	-2
O=C(NC1=NCCS1)c1ccc(F)c(S(=O)(=O)N2CCOCC2)c1	.	-9	.	22	1	.	14	.

Gathered by group, the entries above with an NH in an aromatic ring (5)
SMILES	HIV Env fusion	UUG fidelity	Rce1 inh	MT1-MMP act inh	MT1-MMP act inh RFP	eIF4H inh	CSC inhib	PABP FP inh	others
COc1cc2[nH]c(=O)n(CCCCCC(=O)NCCCN3CCCC3=O)c(=O)c2cc1OC	3	-28	i	-6	-4	8	3	-4
Cn1c(-c2cccc(Br)c2)n[nH]c1=O	10	.	i	4	4	-1	.	0
O=C(CCCSc1nc2ccccc2[nH]1)N1CCN(c2ccc([N+](=O)[O-])cc2)CC1	.	-7	i	-7	-29	-10	-8	0
COc1ccc(-c2[nH]ncc2CNC(C)c2cn(C)nc2C)c(F)c1 (stereo unspecified)	6	.	i	-15	0	8	-4	2
Cc1c(Br)c(O)c(Br)c(O)c1/C=N/n1c(-c2ccccc2)n[nH]c1=S	.	-22	i	0	0	9	37	53	eIF4H inh retest=10;PABP FP inh retest=39
